# From PubChem BioAssay
# Mtb MenB inh: inhibitors of Mycobacterium tuberculosis MenB enzyme; MenB enzyme assay, absorbance read-out; some hits fall short of the stated cut; inhibition, %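 (about 12 µg/mL by stock and volumes)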; 100,000 compounds, 0.43% hits; AID 540299;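 active means mean of two replicates above 30%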;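 further: 0% = no compound and 100% = wells with inactive enzyme; the first replicate is given; strong numbers were not always called active; inactives centre near -10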
# Mtb MbtI inh: blocks the Mycobacterium tuberculosis siderophore enzyme MbtI; purified MbtI enzyme, fluorescence intensity read-out; inhibition, %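 (about 17 µg/mL by stock and volumes)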; P9WFX0; 100,000 compounds, 0.89% hits; AID 493033;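 active means above 50% in both replicates, above 80% if mildly self-fluorescent; inactive means the rest, strongly fluorescent compounds included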;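 further: 0% = mean of negative and 100% = mean of positive controls; one replicate is shown; some compounds called inactive have numbers as strong as hits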
# Target sequence (P9WFX0 whole entry, looked up): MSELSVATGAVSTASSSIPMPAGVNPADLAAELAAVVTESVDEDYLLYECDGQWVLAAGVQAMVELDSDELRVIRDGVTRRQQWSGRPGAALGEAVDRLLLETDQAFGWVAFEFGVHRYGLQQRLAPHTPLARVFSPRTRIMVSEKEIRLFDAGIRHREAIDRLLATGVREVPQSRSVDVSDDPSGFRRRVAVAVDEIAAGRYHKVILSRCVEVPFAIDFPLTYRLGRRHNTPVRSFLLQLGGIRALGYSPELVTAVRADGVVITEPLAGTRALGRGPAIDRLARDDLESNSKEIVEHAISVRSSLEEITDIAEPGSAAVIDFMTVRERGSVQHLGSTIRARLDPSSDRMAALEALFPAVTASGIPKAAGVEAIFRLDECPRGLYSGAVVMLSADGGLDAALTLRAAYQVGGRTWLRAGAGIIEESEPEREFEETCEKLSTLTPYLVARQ
# Polio RdRp inh: poliovirus RNA polymerase inhibition; poliovirus polymerase elongation, fluorescence polarization; hits give low values; 150,000 compounds, 0.66% hits; P03300; % elongation, % (compound at 16.7 µg/mL); in the data active means % elongation below about 90%; further: some results filed as inactive read as strong as hits
# Target sequence (P03300 1749-2209 limits assumed): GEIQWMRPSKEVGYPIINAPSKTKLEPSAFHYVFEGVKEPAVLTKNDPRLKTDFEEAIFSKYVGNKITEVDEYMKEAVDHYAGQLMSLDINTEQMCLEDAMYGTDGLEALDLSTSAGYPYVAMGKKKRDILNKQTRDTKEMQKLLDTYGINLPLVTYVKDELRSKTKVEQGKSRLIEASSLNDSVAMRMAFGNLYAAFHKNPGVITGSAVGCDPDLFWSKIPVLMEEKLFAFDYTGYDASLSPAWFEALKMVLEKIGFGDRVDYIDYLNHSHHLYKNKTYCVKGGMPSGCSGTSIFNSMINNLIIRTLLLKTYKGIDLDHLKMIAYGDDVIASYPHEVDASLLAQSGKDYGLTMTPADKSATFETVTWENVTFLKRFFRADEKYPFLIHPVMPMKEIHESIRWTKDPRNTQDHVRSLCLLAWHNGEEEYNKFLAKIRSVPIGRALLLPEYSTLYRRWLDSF
# Polio RdRp inh intensity: further read-out of Polio RdRp inh, marked with its call; % elongation; measured here: total intensity read-out; formula for this scale not given here;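 total fluorescence in place of polarization; lower means less elongation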
# Numbers without * were called inactive; nt = no result given; & = joins results of further samples.
# The opening 4 compounds, ahead of the listing:
SMILES,Mtb MenB inh,Mtb MbtI inh,Polio RdRp inh,Polio RdRp inh intensity
CSc1ncc(C(=O)O)cn1,20,-1,102,104
Cc1ccc(OC(C)C(=O)Nc2nonc2-c2ccc(Cl)cc2)cc1C (configuration not stated),-54,-3,102,102
O=C1NC(=O)C(c2ccccc2[N+](=O)[O-])=C1Nc1ccc(O)c(Cl)c1,-4,13,101&100,103&101
CN1CCN(C(=S)SCc2nc(N)nc(Nc3ccccc3)n2)CC1,-2,0,103,102

# The list itself (from the top)
SMILES,Mtb MenB inh,Mtb MbtI inh,Polio RdRp inh,Polio RdRp inh intensity
CSc1ncc(C(=O)O)cn1,20,-1,102,104
Cc1ccc(OC(C)C(=O)Nc2nonc2-c2ccc(Cl)cc2)cc1C (configuration not stated),-54,-3,102,102
O=C1NC(=O)C(c2ccccc2[N+](=O)[O-])=C1Nc1ccc(O)c(Cl)c1,-4,13,101&100,103&101
CN1CCN(C(=S)SCc2nc(N)nc(Nc3ccccc3)n2)CC1,-2,0,103,102
Cc1c(N)n[nH]c1-c1cccs1,-3,8,99,99
CCCCOc1ccccc1C(=O)N(Cc1ccco1)Cc1sccc1C,-21,7,102,103
Cc1ccc(-c2nc(CS(=O)CC(=O)Nc3c(C)cccc3C)c(C)o2)cc1 (configuration not stated),-25,0,101,102
CCc1ccc(-c2nn(-c3ccccc3)cc2/C=C\C(=O)O)cc1,nt,2,102,106
COc1ccc(C2(C(F)(F)F)NC(=O)C3=C(CC(C)(C)CC3=O)O2)cc1 (configuration not stated),nt,-3,103,96
N#CC(C(=O)c1ccco1)=C1SCCCS1,-71,3,101,100
O=S(=O)(c1ccc(N2CCOCC2)cc1)N1CCOCC1,11,-19,100,104
CNC(=O)NNc1nccc(-c2cccnc2)n1,-7,18,105,107
O=C(CN1CCC(C(=O)c2ccccc2)CC1)NCc1cccs1,-56,-3,103,104
O=C(O)CNC(=O)c1ccc(F)cc1,-15,-9,98,97
Cc1cccc(N(C(=O)c2csnn2)C(C(=O)NC2CCCCC2)c2ccco2)c1 (configuration not stated),0,-4,101,103
Oc1ccc(Cl)cc1-c1csnn1,2,9,100,101
O=C(CC1SC(=NC2CC3C=CC2C3)NC1=O)Nc1ccc(Cl)cc1 (configuration not stated),11,3,102,100
CC(C)NC(=O)CN1C(=O)c2cccc3cccc1c23,0,0,101,105
COc1cc(S(=O)(=O)N2CCCc3ccccc32)c(OC)cc1C,5,1,101,103
O=C1N=C2C=CC=CN2C(=O)C1Cc1ccccc1 (configuration not stated),0,-8,103,102
CC(=O)Nc1ccc(N(C)S(=O)(=O)c2ccc(C)cc2)cc1,nt,-5,102,105
COc1ccc(C(CNC(=O)Cc2cccs2)N(C)C)cc1 (configuration not stated),-13,8,104,111
O=C(NCCO)c1ccc2c(c1)OCCOCCOCCO2,-21,nt,100,97
O=C(OCc1cn2cc(Cl)ccc2n1)C1COc2ccccc2O1 (configuration not stated),-25,28,104,101
CCc1ccc(/C=C(/C#N)C(=O)OC)s1,-48,-2,104,100

# Only Mtb MenB inh, Polio RdRp inh and Polio RdRp inh intensity (4 entries from above):
SMILES	Mtb MenB inh	Polio RdRp inh	Polio RdRp inh intensity
Cc1cccc(N(C(=O)c2csnn2)C(C(=O)NC2CCCCC2)c2ccco2)c1 (configuration not stated)	0	101	103
Oc1ccc(Cl)cc1-c1csnn1	2	100	101
O=C(CC1SC(=NC2CC3C=CC2C3)NC1=O)Nc1ccc(Cl)cc1 (configuration not stated)	11	102	100
CC(C)NC(=O)CN1C(=O)c2cccc3cccc1c23	0	101	105

# (list continues)
SMILES,Mtb MenB inh,Mtb MbtI inh,Polio RdRp inh,Polio RdRp inh intensity
C=CCN(C(=O)Cc1nc(-c2ccc(OC)cc2)no1)c1ccccc1,-5,-4,101,102
CC(C)(C)CC(C)(C)NS(=O)(=O)c1ccc(F)cc1,-7,-7,102,104
CCOc1cc(N2CCOCC2)c(OCC)cc1NC(=O)CSc1ncccn1,-14,13,104,106
Cc1nc2ccccc2c(=O)n1NC(=O)/C=C/c1ccccc1,-1,5,102,107
NC(=O)CSc1nc2c(c(=O)n1CCc1ccccc1)SCC2,3,2,100,102
CC1Cc2ccccc2N1C(=O)Nc1ccc(Cl)c(Cl)c1 (configuration not stated),-8,nt,98,106
Cc1ccc(OCC(=O)NC2CC(C)(C)NC(C)(C)C2)c(C)c1,2,-9,101,100
Cc1ccc2nc(N3CCN(c4cccc(C)c4C)CC3)c(-n3nc(C)cc3C)nc2c1,-4,0,102,106
Cc1cnc(C(=O)OCC(=O)N2C(C)CCCC2C)cn1 (configuration not stated),-46,-2,98,99
CCC1CC(/C(C)=N/NC(N)=O)OC1=O (configuration not stated),7,-10,99,99
COc1ccc(NC(=O)c2ccco2)cc1NC(=S)NC(=O)Cc1ccccc1,-20,-4,100,105
Cn1c(SCC(=O)c2ccc(Cl)s2)nnc1C1COc2ccccc2O1 (configuration not stated),-30,14,121,128
CCN1C(=O)c2ccc(Oc3ccc4c(c3)C(=O)N(CC)C4=O)cc2C1=O,-32,-16,101,104
COc1ccccc1C(=O)NCCOc1ccc(C)c(C)c1,-16,nt,109,112
Brc1ccc(Cn2ncc3ccccc32)cc1,19,0,100,102
N#CC(c1ccc2c(c1)OCO2)N1CCN(C(C#N)c2ccc3c(c2)OCO3)CC1 (configuration not stated),-1,-8,100,101
COc1cccc(OCC2CCCNC2)c1 (configuration not stated),10,1,104,104
Fc1ccc(CSC(=S)N2CCN(C(=S)SCc3ccc(F)cc3)CC2)cc1,-8,4,105,104
CCn1c2ccccc2c2cc(CN(C)Cc3ccccc3)ccc21,-24,nt,102,102
O=C(CCCn1c(=O)[nH]c2ccsc2c1=O)Nc1ccc(F)cc1,-12,1,99,101
CC(=O)N(c1ccccc1)c1nc(COC(=O)/C=C/c2cccs2)cs1,-2,6,102,103
O=C1Nc2ccccc2/C1=N\N=C\C1=C(N2CCOCC2)C(=C\c2ccccc2)/CC1,5,6,100,90
Cc1ccccc1-c1nc(C#N)c(NC2CCCCC2)o1,-27,-102,99,101
Cc1ccc(C(=O)NC(O)(C(F)(F)F)C(F)(F)F)cc1,nt,-1,100,100
Cn1c(=NC(=O)C2=NNC(=O)CC2)sc2ccccc21,-21,77,98,102
# (list continues)
SMILES,Mtb MenB inh,Mtb MbtI inh,Polio RdRp inh,Polio RdRp inh intensity
COc1ccc2cc3cc(C(=O)NCCN(C)C)oc3nc2c1,6,107,96,87
Oc1ccc(Oc2c(F)c(F)c(Oc3ccc(O)cc3)c(F)c2F)cc1,nt,-11,103,105
CNS(=O)(=O)c1cccs1,-17,-4,102,105
COC(=O)c1c(SC)[nH]c2ccccc2c1=O,17,21,102,104
CCC(=O)N1CCc2cc(S(=O)(=O)N(CC)CC)ccc21,-13,-5,104,109
Oc1c(C(Nc2ccccn2)c2ccccc2)ccc2cccnc12 (configuration not stated),nt,-4,101,110
COc1ccc(CC(CC(=O)O)C(=O)NCc2ccccc2)cc1 (configuration not stated),-16,-14,105,102
O=C(COc1ccc2oc3ccccc3c2c1)NCCc1ccccn1,0,30,99,105
CCN1CC(O)=C(c2ccccc2)C1=N,-19,7,104,102
CN(C)c1ccc(CN(CC2CCCO2)C(=O)COc2ccccc2)cc1 (configuration not stated),3,-8,100,102
O=S(=O)(c1ccccc1)n1cnc2ccccc21,-57,-15,100,104
O=C(OCc1nc2ccsc2c(=O)[nH]1)c1ccc(N2CCCC2=O)cc1,6,12,102,102
CC1CN(C(=O)COC(=O)c2ccc(NC(=O)CC#N)cc2)CC(C)O1 (configuration not stated),-15,-2,111,115
O=C(Nc1c(C(=O)N2CCN(Cc3ccccc3)CC2)oc2ccccc12)c1ccccc1,-20,-90,101,100
CC(=O)N1CCC(=NNC(=O)c2cccc(S(=O)(=O)Nc3ccccc3Cl)c2)CC1,6,5,104,110
CCc1ccc2occ(CC(=O)Nc3ccc(F)cc3)c2c1,-28,-1,102,100
Cc1cccc(/C=C2\Sc3ccc(C(=O)NC(C)C)cc3N(C)C2=O)c1,-13,1,101,104
O=C(Nc1ccccc1-c1nc2ccccc2[nH]1)c1ccc(F)cc1F,nt,-4,103,107
Cc1cccn2c(=O)c(C=Nc3ccc(Cl)cc3)c(Sc3ccccc3)nc12,-3,nt,97,106
O=S(=O)(c1c(F)cccc1F)N1CCCC2CCCCC21 (configuration not stated),-20,-5,98,104
COCCNC(=S)N1CCCC(CO)C1 (configuration not stated),-4,-10,101,102
CN(CCOc1ccccc1)c1ccc(S(=O)(=O)N2CCCCC2)cn1,-18,4,98,99
CC1CCCCN1CCNC(=O)CCc1nnc2n(Cc3ccc(F)cc3)c(=O)c3ccccc3n12 (configuration not stated),-10,16,102,108
O=C(OCN1C(=O)c2ccccc2C1=O)c1ccc(Cl)cc1,-21,-11,99,101
Cc1ccc(CN(C)CC(O)COC(c2ccccc2)c2ccccc2C)o1 (configuration not stated),-1,-3,103,100

# One compound at a time, as listed above. Values in the order: Mtb MenB inh | Mtb MbtI inh | Polio RdRp inh | Polio RdRp inh intensity
# O=C(COc1ccc2oc3ccccc3c2c1)NCCc1ccccn1 reads 0 | 30 | 99 | 105
# COc1ccc(CC(CC(=O)O)C(=O)NCc2ccccc2)cc1 (configuration not stated) reads -16 | -14 | 105 | 102
# CC1CN(C(=O)COC(=O)c2ccc(NC(=O)CC#N)cc2)CC(C)O1 (configuration not stated) reads -15 | -2 | 111 | 115
# O=C(Nc1c(C(=O)N2CCN(Cc3ccccc3)CC2)oc2ccccc12)c1ccccc1 reads -20 | -90 | 101 | 100
# Oc1ccc(Oc2c(F)c(F)c(Oc3ccc(O)cc3)c(F)c2F)cc1 reads nt | -11 | 103 | 105

# Next section.
SMILES,Mtb MenB inh,Mtb MbtI inh,Polio RdRp inh,Polio RdRp inh intensity
COc1ccc(-c2cc(C(F)(F)F)nc(SCCC(=O)NC(C)C)n2)cc1,-3,-6,101,102
Cc1ccc(P(=Nc2cc(Cl)ccc2Cl)(N2CCOCC2)N2CCOCC2)o1,-9,-1,97,105
COc1ccccc1CC(=O)NCc1nn(-c2ccccc2)nc1C,0,-7,93,118
COc1cccc(NC(=O)C(Sc2nnc3n2CCCCC3)c2ccccc2)c1 (configuration not stated),-12,-10,105,95
Cc1ccc(C)c(NC(=O)CSc2ncccn2)c1,-7,-1,102,105
CCOC(=O)c1nnc(Cc2ccccc2OC)o1,-9,-9,104,103
O=C(O)CCOc1cccc(Br)c1,nt,-2,101,104
CCN1CCN(C(=O)/C=C/c2cn(-c3ccccc3)nc2-c2cccnc2)CC1,-1,20,102,101
COc1ccc(C(C)(C)C)cc1S(=O)(=O)N1CCN(c2ccccc2)CC1,-35,5,100,99

# Reprinted at random: two compounds from above.
SMILES,Mtb MenB inh,Mtb MbtI inh,Polio RdRp inh,Polio RdRp inh intensity
COc1cccc(NC(=O)C(Sc2nnc3n2CCCCC3)c2ccccc2)c1 (configuration not stated),-12,-10,105,95
COc1ccccc1CC(=O)NCc1nn(-c2ccccc2)nc1C,0,-7,93,118
